Source: PubChem BioAssay (National Center for Advancing Translational Sciences (NCATS))
Cruzain Triton: qHTS Assay for Promiscuous and Specific Inhibitors of Cruzain (with detergent); 200,000 tested, 0.43% active; AID 1478, 2009; Potency, µM, for inactives: max response, negative = inhibition, hits mostly inhibitors; Cruzipain (Trypanosoma cruzi), P25779; purified cruzain, Z-FR-AMC fluorescence, 0.01% Triton;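 also: plate controls were neutral wells for no effect and buffer without enzyme for full effect; nearly all actives have a fitted effect of over 40% in size; top concentration of the series not given in the record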
Target sequence (P25779 123-467 limits assumed): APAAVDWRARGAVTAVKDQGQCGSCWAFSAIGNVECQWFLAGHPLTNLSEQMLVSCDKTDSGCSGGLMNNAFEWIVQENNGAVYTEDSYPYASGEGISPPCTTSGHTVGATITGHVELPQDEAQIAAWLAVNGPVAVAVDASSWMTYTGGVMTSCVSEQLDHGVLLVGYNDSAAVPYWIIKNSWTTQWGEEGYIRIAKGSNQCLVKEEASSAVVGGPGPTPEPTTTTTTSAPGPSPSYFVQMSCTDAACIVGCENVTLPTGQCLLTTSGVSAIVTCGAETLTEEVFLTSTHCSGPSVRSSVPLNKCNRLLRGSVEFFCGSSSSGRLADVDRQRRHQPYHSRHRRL
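Cysteine protease activity tested under reducing, mildly acidic conditions (100 mM sodium acetate pH 5.5, 5 mM DTT) plus 0.01% Triton X-100. Cruzain 1.5 nM; substrate Z-FR-AMC 2 uM; 15 min compound preincubation at room temperature.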
RE007 growth inh: qHTS Assay for Inhibitors of the HIV-1 protein Vpr. 360,000 tested, 0.21% active. S. pombe RE007 Vpr strain, BacTiter-Glo ATP luminescence, 24 h; control for the full effect not named in the record. Potency, µM (titrated, usually from 92.2 µM), without a hit: top-dose activity change, negative = less growth. AID 651644, 2012; active = well fitted falling curve with a large enough effect; inconclusive = small, poorly fitted or top-dose-only effect; inactive = no such curve, though single readings can be large or run the other way;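 also: % is scaled to controls: 0 for no effect and ±100 for the full control effect; nearly all actives have a fitted effect of over 50% in size; the assay follows cell death caused by Vpr and the record does not say whether a fall means rescue or toxicity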
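Fission yeast RE007 carrying one integrated HIV-1 vpr copy, seeded at OD 0.01 in PMG+AL medium with 23 nL pinned compound. Grown 24 h at 30 degrees; viability read by BacTiter-Glo luminescence after 5 min.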
Cruzain inh noDet: qHTS Assay for Promiscuous and Specific Inhibitors of Cruzain (without detergent) | 200,000 tested, 2.3% active | Cruzipain (Trypanosoma cruzi), P25779 | AID 1476, 2009 | purified cruzain, Z-FR-AMC fluorescence, no detergent | Potency, µM, for inactives: max response, negative = inhibition, most hits filed as inhibitors;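 also: plate controls were enzyme without inhibitor for no effect and buffer without enzyme for full effect; nearly all actives have a fitted effect of over 40% in size; top concentration of the series not given in the record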
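Detergent-free condition (0.00005% Triton X-100) in acetate buffer pH 5.5 with DTT. 1.5 nM enzyme and compound were pre-mixed 15 min, then 2 uM Z-FR-AMC substrate added; reaction progress from fluorescence change between first and third reads (60 s).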
SARS PLP yeast: qHTS of Yeast-based Assay for SARS-CoV PLP; S. cerevisiae expressing SARS-CoV PLpro, growth rescue; control for the full effect not named in the record; AID 485353, 2010; 330,000 tested, 0.19% active; Potency, µM (titrated, usually from 32.9 µM), for inactives: top-dose activity, positive = growth rescue; active means well fitted rising curve with a large enough effect; inconclusive means small, poorly fitted or top-dose-only effect; inactive means no such curve, though single readings can be large or run the other way; also: 0% is about no effect; nearly all actives have a fitted effect of over 55% in size; growth read by luminescence after 48 h
2A StopGo: High Throughput Screening for Foot and Mouth Disease Virus Antivirals; AID 1159524, 2015; 410,000 tested, 1.2% active; human cells with a luciferase reporter of 2A StopGo recoding; control for the full effect not named in the record; Potency, µM (doses to about 57.9 µM), inactives show at the highest dose signal change, negative = less light; active = well fitted falling curve with a large enough effect; inconclusive = small, poorly fitted or top-dose-only effect; inactive = no such curve, though single readings can be large or run the other way; tested in HEK293T cells; also: % is scaled to controls: 0 for no effect and ±100 for the full control effect; nearly all actives have a fitted effect of over 45% in size; luciferase light after 4 h
NS1 inh: qHTS Assay for Inhibitors of Influenza NS1 Protein Function | S. cerevisiae slowed by influenza A NS1, growth recovery by OD600 | 270,000 tested, 0.4% active | Potency, µM (titrated, usually from 46.1 µM), for the others: at the top dose activity, positive = more growth; active means well fitted rising curve with a large enough effect; inconclusive means small, poorly fitted or top-dose-only effect; inactive means no such curve, though single readings can be large or run the other way; also: nearly all actives have a fitted effect of over 50% in size
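Recovery from NS1-induced slow growth read by OD600 in budding yeast switched to galactose assay medium (pH 6.0, -URA) at 1:100 dilution. Compound 23 nl per well; the matching strain lacking NS1 serves as control.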
Marburg entry inh: qHTS for inhibitors of binding or entry into cells for Marburg Virus; Marburg virus pseudotyped entry inhibition, cell reporter; control for the full effect not named in the record; about a third of the inactives were read at about 46 µM; AID 540276, 2011; 300,000 tested, 1.8% active; Potency, µM (highest dose often 37.8 µM), for inactives: at the top dose activity change, negative = inhibition, most hits filed as inhibitors; active = well fitted inhibition curve with a large enough effect; inconclusive = small, poorly fitted or top-dose-only effect, or effect the other way; inactive = flat fitted curve, though single readings scatter; tested in HEK293 cells; about a fifth of its hits are not listed in these tables; also: % is scaled to controls: 0 for no effect and ±100 for the full control effect; luciferase read-out
Lassa entry inh: qHTS for Inhibitors of binding or entry into cells for Lassa Virus. Lassa virus pseudotype entry inhibition, cell reporter; control for the full effect not named in the record. 300,000 tested, 1.2% active. Potency, µM (highest dose often 37.9 µM), without a hit: top-dose activity change, negative = inhibition, usual class: inhibitors; active means well fitted inhibition curve with a large enough effect; inconclusive means small, poorly fitted or top-dose-only effect, or effect the other way; inactive means flat fitted curve, though single readings scatter; tested in HEK293 cells; also: % is scaled to controls: 0 for no effect and ±100 for the full control effect; nearly all actives have a fitted effect of over 50% in size; luciferase read-out
* hit, by the source's call; ? = inconclusive; . = not tested or not shown; & = joins results of further samples; [ ] = another dose, or the depositor's remark. Unless noted, calls follow the shape of the dose curve; as a rule, active = well fitted curve in the direction sought with a large enough effect; inconclusive = small, poorly fitted or top-dose-only effect, or another doubt; inactive = no such curve, though single readings can be large; an effect the other way counts as inactive or inconclusive. Potency is read from the fitted curve at half-maximal effect.

SMILES	Cruzain Triton	RE007 growth inh	Cruzain inh noDet	SARS PLP yeast	2A StopGo	NS1 inh	Marburg entry inh	Lassa entry inh
CCOc1ccccc1CNC(=O)c1cnc2sc(N3CCCCCC3)nn2c1=O	-1.6%	.	?	.	0%	.	.	13%[46.1 µM]
CN1CCN(C(=O)c2cnn(-c3ccc(F)cc3F)c2C2CCN(C(=O)OC(C)(C)C)CC2)CC1	-2.1%	.	-1%	.	-6%	.	.	?
Cc1cc(NC(=O)CSc2nc(-c3ccccc3)nc3c2c(=O)n(C)c(=O)n3C)no1	.	8%	.	0%	-6%	2%	.	.
C=CCn1c(C(C)NC(=O)COC)nc2ccccc21 (stereo not given)	2.9%	4%	-16%	3%	-10%	-4%	.	.
Cc1c(Cl)cccc1N=C1SCCN1C(=O)CN1C(=O)NC2(CCCC2)C1=O	.	18%	.	-7%	?	.	?	?
O=C(NCCC1CCCCN1S(=O)(=O)c1ccccc1)C(=O)NCCN1CCOCC1 (stereo not given)	.	6%	.	2%	-27%	.	14%	4%
O=C(NC1CCCCC1)C(c1ccccn1)N(C(=O)Cc1cccs1)c1ccc(Cl)cc1 (stereo not given)	-3.7%	4%	13%	2%	18%	20%	10µM*	-27%
COc1nc(-c2ccc(Cl)cc2)nnc1C	.	-8%	.	0%	13%	-2%	?	0%[46.1 µM]
Cc1cccn2cc(CCNS(=O)(=O)c3ccc([N+](=O)[O-])cc3)nc12	-0.2%	-15%	12%	9%	-24%	6%	2%	-4%
O=C(CSc1nc2ncccc2[nH]1)Nc1ccc2c(c1)OCCO2	-5.8%	-2%	-9%	3%	0%	-5%	18%	5%
CC1CCCCN1C(=O)CNCc1ccc(F)cc1 (stereo not given)	.	4%	.	0%	21%	3%	28%	?
Cc1ccc(C(=O)Nc2ccc(C(=O)OCc3cc(=O)n4ccsc4n3)cc2)cc1	0.4%	.	8%	-1%	7%	.	.	18%[46.1 µM]
Cc1nc(N2CCN(c3ccccc3F)CC2)[nH]c(=O)c1C	.	1%	.	-6%	-1%	-17%	.	.
Cn1cnnc1SCC(=O)Nc1nc(-c2ccccc2)cs1	.	-17%	.	-2%	-1%	5%	28%[46.1 µM]	-15%
COc1ccc(-c2ccc(C(=O)O)c(=O)[nH]2)cc1	.	4%	.	1%	8%	.	?	?
COc1ccc(N2CCN(C(=O)c3ccc(-c4ccccc4)cc3)CC2)cc1	.	5%	.	2%	-6%	0%	.	.
CNC(=O)c1cccc(NC(=O)CCCNC(=O)c2ccc(Cl)cc2)c1	.	7%	.	0%	12%	5%	0%[46.1 µM]	0%[46.1 µM]
O=C1NC(=O)C2C1C(c1ccc([N+](=O)[O-])cc1)=NN2Cc1ccccc1 (stereo not given)	.	7%	.	0%	-11%	.	1%[46.1 µM]	22%[46.1 µM]
COc1ccc(NC(=O)N(O)C2(C#N)CCCCC2)cc1	.	22%	.	.	21%	.	?	29%
CCOc1cc(/C=N/NC(=O)C(O)(c2ccccc2)c2ccccc2)ccc1OC(=O)c1ccco1	.	8%	.	.	-4%	.	0%[46.1 µM]	6%
Cc1ccccc1Cc1c(C)nc2c(C(=O)NCc3ccc4c(c3)OCO4)cnn2c1C	-18%	0%	-23%	6%	-11%	6%	-5%	-35%[14.3 µM]
CCC1CCCCN1C(=O)c1cc(COc2ccc(-n3cncn3)cc2)on1 (stereo not given)	.	2%	.	3%	?	-18%	-17%	-15%
CCOCCCNC(=O)CN1C(=O)COc2ccc(S(=O)(=O)N3CCC(C)CC3)cc21	.	16%	.	-6%	-13%	13%	.	.
COc1ccccc1NC(=O)CC(c1ccc(OC(C)C)cc1)c1ccccc1OC (stereo not given)	-5.0%	-10%	-16%	18%	-17%	21%	?	-25%
CCOc1ccc(-c2cc(C)[n+](CCO)c(-c3ccc(OCC)cc3)c2)cc1	.	9%	.	-7%	-27%	.	?	?
O=C(c1cccc([N+](=O)[O-])c1)N1CCN(CCc2ccncc2)CC1	-0.5%	.	-2%	.	-12%	.	11%[46.1 µM]	-8%[46.1 µM]
O=S(=O)(c1ccccc1)N1CCN(C(=S)Nc2ccc(F)cc2)CC1	-3.0%	-3%	3%	-13%	36%[activator]	9%	-3%	-25%
Cc1nnc(NC(=O)CSCc2cc(=O)c3ccc(C)c(C)c3[nH]2)s1	1.6%	.	11%	.	-19%	.	.	-11%[46.1 µM]
CCN(CC)S(=O)(=O)c1cc(NC(=O)CSc2nc3c(cc2C#N)C(=O)CC(C)(C)C3)ccc1C	-4.8%	4%	6%	29%	?	13%	?	?
Cn1cc(S(=O)(=O)N2CCCC2)cc1C(=O)N1CCN(c2cccc(Cl)c2)CC1	-2.2%	6%	-2%	-1%	-29%&-10%	10%	.	-15%[46.1 µM]
COc1ccc(CCNC(=O)CCCn2c(=O)c3ccccc3n(Cc3cccc(Cl)c3)c2=O)cc1OC	-5.3%	.	?	.	-26%	.	?	-8%[46.1 µM]
CCCCC(C(=O)NCCC(C)C)N(CCCN1CCOCC1)C(=O)c1snc(C(N)=O)c1N (stereo not given)	-1.1%	2%	5%	-1%	29%	0%	5%	3%
O=C(CSc1nnc(-c2ccccc2)c(-c2ccccc2)n1)NCc1ccco1	-12%	3%	?	10%	?	-8%	?	?
Brc1cccc(-c2nnc3sc(CN4CCCCC4)cn23)c1	2.0%	-14%	6%	8%	15%	4%	2%	-40%[14.3 µM]
Cc1nn(-c2ccccc2)c(C)c1/C=N/Nc1nc2ccccc2[nH]1	?	-18%	25µM*	-32%	?	?	13µM*	?
Cc1cccc(NC(=O)N2CCN3CCCCC3C2)c1C (stereo not given)	-1.1%	.	-4%	.	-7%	.	.	21%[46.1 µM]
COc1cccc(Cn2c(=O)n(-c3cc(C)cc(C)c3)c(=O)c3oc4ccccc4c32)c1	-1.5%	.	-8%	.	-20%	.	.	1%[46.1 µM]
NC(=O)c1ccccc1OCC(=O)NS(=O)(=O)c1ccccc1	-2.8%	9%	-2%	0%	13%	9%	18%	-14%[14.3 µM]
CCN(C(=O)C=Cc1ccco1)c1ccccc1	.	24%	.	.	-10%	.	14%[46.1 µM]	1%[46.1 µM]
CCOc1ccc(NCc2cccn2-c2nnc(N3CCC(C(=O)NCc4cccc(OC)c4)CC3)s2)cc1	-3.6%	.	19%	.	?	.	1%[46.1 µM]	.
O=C(Nc1nnc(-c2ccc(F)cc2)s1)c1ccco1	.	-13%	.	-1%	40%[activator]	-14%	10%[46.1 µM]	5%[46.1 µM]
CCn1ccnc1CN(C)Cc1cn(-c2cc(C)ccc2C)nc1-c1ccccc1	.	-4%	.	-1%	-26%	2%	?	?
Cc1ccc(F)cc1NC(=O)C12CC3CC(C1)CC(n1cnc([N+](=O)[O-])n1)(C3)C2	0.7%	14%	-2%	-7%	-13%	18%	-15%	9%
CCC1(c2ccc(F)cc2)NC(=O)N(CC(=O)N2CCN(S(=O)(=O)c3ccc(Cl)cc3)CC2)C1=O (stereo not given)	.	2%	.	-3%	-11%	.	-10%	-28%[46.1 µM]
Cc1ccc(C(=O)NCC2CCCO2)cc1S(=O)(=O)N1CCCCC1 (stereo not given)	.	18%	.	-6%	-2%	11%	-5%	-19%
CN(CP(=O)(O)CCc1ccccc1)S(C)(=O)=O	-0.2%	12%	-3%	0%	-17%	-21%	0%	2%
O=C(Nc1ccccc1)ON=C1CCCC1	1.9%	-23%	0%	-72%	11%	-28%	-22%	-3%
COCCNC(=O)CCC(=O)NNc1nc2ccccc2c2nc(-c3ccccc3)nn12	1.6%	4%	4%	1%	-11%&-6%	.	-26%&18%[46.1 µM]	6%
CCN(CC)CCN/N=C(\C)c1c(O)[nH]c(=O)[nH]c1=O	.	-17%	.	2%	5%	6%	.	.
COCCCN(C(=S)Nc1ccc(OC)cc1)C(C)c1ccncc1 (stereo not given)	.	-14%	.	-1%	-7%	.	8%[46.1 µM]	14%
COC(=O)c1c(-c2ccc(Cl)cc2)noc1N1CCN(c2ccccc2OC)CC1	3.1%	.	-14%	.	?	.	.	17%[46.1 µM]
Cc1cc(N2CCCCC2)nc2ccc(NC(=O)CCC(=O)N3CCN(c4cccc(Cl)c4)CC3)cc12	16µM*	.	?	.	?	.	?	-9%[46.1 µM]
CCOC(=O)N1CCC(NC(=O)c2cc(C(=O)NC3CCN(Cc4ccccc4)CC3)ccc2CO)CC1	.	3%	.	2%	-19%	.	?	28%[46.1 µM]
Cc1ccc(N2CCC(N3CCN(C4CCCCC4)C(CCO)C3)CC2)cc1 (stereo not given)	.	-11%	.	0%	-5%	-1%	?	-13%[46.1 µM]
CCOC(=O)C1C(=O)NC23CCCC2C1c1ccccc1O3 (stereo not given)	0.3%	9%	-4%	0%	-12%	0%	3%	10%
CNC(=O)c1c(NC(=O)Cc2coc3ccc(C)cc23)sc2c1CCCC2	-9.3%	.	?	.	12%	.	?	?
COc1ccc([N+](=O)[O-])cc1NC(=O)CCN1CCN(CCO)CC1	-3.2%	8%	-12%	20%	-12%	?	4%	21%
COc1ccc(Cn2c(CO)cnc2SCC(=O)Nc2cccc(NC(C)=O)c2)cc1	.	16%	.	1%	6%	7%	.	.
CC(=O)Nc1ccc(NC(=O)COC(=O)c2ccc([N+](=O)[O-])o2)cc1	.	5%	.	1%	-9%	.	6%[46.1 µM]	-18%
CC(C)c1ccc(S(=O)(=O)c2nnn3c2nc(N2CCOCC2)c2sccc23)cc1	0.8%	.	14%	.	11%	.	.	?
COc1ccccc1NC(=O)c1oc2ccccc2c1NC(=O)C(C)C	-2.4%	.	-11%	.	?	.	5%[46.1 µM]	-7%[46.1 µM]
Cn1c(=O)c2c(nc(NCc3ccccc3)n2Cc2ccc(Cl)c(Cl)c2)n(C)c1=O	-8.1%	.	3%	.	?	.	?	?
CCN(Cc1ccccc1)c1ncnc2c1cnn2-c1ccc(F)cc1	-4.1%	.	14%	.	13%	.	.	25%[46.1 µM]
